Screening results as filed in PubChem.
Mtb growth – M. tuberculosis H37Rv growth inhibitors, H37Rv strain (AID 1626); M. tuberculosis H37Rv growth inhibition; higher % means a stronger effect; hit rate 0.95% among 220,000; inhibition, % at 10 µM, or IC50 in µM where a hit was titrated;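 active = confirmed in a dose series; inconclusive = inhibition above 80% but not taken into the dose series; inactive = below 80% or under 30% at every dose of the series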;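 note: bacteria incubated seven days before Alamar blue readout; 0% = bacteria only wells and 100% = bacteria with antibiotic wells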
Mtb bLac sens – beta-lactam sensitization of Mtb H37Rv. M. tuberculosis H37Rv growth with meropenem, percent inhibition; hits of this screen are not shown here. inhibition, % at 25 µM. hit rate 0.27% among 330,000. AID 434955;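 active = about 74% or more and at least 40 points above the plate without the antibiotic, then above 30% in a dose series; inconclusive = first-round hits that could not be retested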;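 note: growth measured after seven days incubation then overnight dye step; 0% = bacteria only wells and 100% = bacteria with antibiotic; twin plates without the antibiotic show which effects depend on it; some results filed as inactive read as strong as hits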
Arbovirus anti – arbovirus infection inhibition; arbovirus infection cell-based antiviral screen; inhibition, % at 10 µM; hit rate 0.37% among 200,000;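 active = inhibition from about 30%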;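 note: bluetongue infection of BSR cells; cell survival read as ATP light after 72 h; 0% = infected wells without compound and 100% = uninfected wells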
RecA splice inh – inhibitors of M. tuberculosis RecA intein splicing; inhibition, %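 (about 9 µM by stock and volumes)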; P9WHJ3; AID 2221; cell-free RecA intein splicing, fluorescence; hit rate 0.75% among 290,000; in the data active = inhibition above about 30%; inconclusive = no clear call, values can overlap the other calls;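 note: 0% = vehicle wells and 100% = reference inhibitor control wells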
Target sequence (P9WHJ3 whole entry, looked up, canonical isoform): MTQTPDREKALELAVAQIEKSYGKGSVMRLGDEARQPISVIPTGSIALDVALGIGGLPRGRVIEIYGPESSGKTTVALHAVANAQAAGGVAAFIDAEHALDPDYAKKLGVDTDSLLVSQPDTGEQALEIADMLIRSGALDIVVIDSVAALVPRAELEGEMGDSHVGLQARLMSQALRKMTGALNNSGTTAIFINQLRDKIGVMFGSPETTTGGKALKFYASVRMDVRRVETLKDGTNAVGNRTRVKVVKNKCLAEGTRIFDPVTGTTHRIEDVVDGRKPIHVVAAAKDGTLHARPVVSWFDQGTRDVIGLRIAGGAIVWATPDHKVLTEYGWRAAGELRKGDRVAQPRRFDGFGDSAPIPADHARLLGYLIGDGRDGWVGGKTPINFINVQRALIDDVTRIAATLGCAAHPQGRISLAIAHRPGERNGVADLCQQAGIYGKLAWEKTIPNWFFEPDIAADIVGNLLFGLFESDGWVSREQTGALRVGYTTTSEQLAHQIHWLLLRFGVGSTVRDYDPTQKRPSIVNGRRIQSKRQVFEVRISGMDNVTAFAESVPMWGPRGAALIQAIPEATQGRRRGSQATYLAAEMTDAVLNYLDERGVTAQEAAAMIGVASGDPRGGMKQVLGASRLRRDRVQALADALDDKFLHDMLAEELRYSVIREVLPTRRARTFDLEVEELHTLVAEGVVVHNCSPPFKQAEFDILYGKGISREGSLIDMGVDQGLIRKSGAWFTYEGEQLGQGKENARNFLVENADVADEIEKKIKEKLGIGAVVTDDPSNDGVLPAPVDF
YopH PTP inh – blocks Yersinia enterocolitica YopH tyrosine phosphatase; fluorescence Ex485/Em525; inhibition, %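 (about 10 µM by stock and volumes)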; hit rate 0.16% among 140,000;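 active = inhibition of 50% or more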;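 note: controls were vehicle for no effect and minimum signal wells for full effect; inactives centre near -20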
Arbovirus anti repeat – recorded beside Arbovirus anti, whose call it bears; inhibition, %; measured here: 10K subset replicate screen; many hits read low in the repeat;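 first of two repeat runs on a subset; 0% = infected and 100% = uninfected wells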
* = called active by the depositor; ? = inconclusive; nt = not tested or not shown. This is a subset (hit frequency here may not be typical).

SMILES	Mtb growth	Mtb bLac sens	Arbovirus anti	RecA splice inh	YopH PTP inh	others
O=C(NCc1ccccn1)C(=O)Nc1cc2c3c(c1)CC(=O)N3CCC2	nt	-8	nt	15	nt
COc1cc(C(=O)NCc2nnc(SCC(=O)Nc3cccc(C(F)(F)F)c3)o2)cc(OC)c1OC	nt	2	nt	-2.6	nt
O=C(CCNS(=O)(=O)c1cccs1)NCc1ccco1	-10%	-7	4	1.7	-32
c1ccc(-c2noc(-c3ccc4ccccc4c3)n2)cc1	3%	1	-4	nt	2
Cc1ccccc1NC(=O)C(=O)NCCCN1CCOCC1	-3%	1	9	0.8	nt
CCC/C=N/NC(=O)c1cc(Br)ccc1O	-8%	3	0	-5.7	-29
O=C(O)C(O)(c1ccccc1)C(O)c1ccccc1 (stereo unspecified)	nt	-12	nt	-0.7	nt
Cc1cc2ccccc2c(=O)n1CC(=O)NCC(=O)N1CCN(c2ccccc2F)CC1	3%	2	-2	1.3	-36
O=C1c2ccccc2S(=O)(=O)c2cc(C(=O)N3CCN(c4ccc(Cl)cn4)CC3)ccc21	6%	53	nt	1.8	nt
CC(C)(C)NC(=O)CN(Cc1ccc2c(c1)OCO2)C(=O)CCC(=O)Nc1nccs1	-6%	-4	-3	-5.4	nt
CN(CC(=O)Nc1ccccc1-c1ccccc1)Cc1ccccc1Cl	12%	3	-12	26	nt
COc1ccc(-c2nn(-c3ccccc3)cc2/C=C2/SC(=S)N(CCC(=O)O)C2=O)cc1	nt	6	nt	-1.5	nt
Cc1cccc(C)c1NC(=O)c1sc(Cl)nc1C	-6%	-1	-1	1.0	-50
Cc1noc(NC(=O)c2ccccc2Cl)c1C#N	-82%	-17	12	1.0	-44
O=C(NCc1ccncc1)c1ccc(Cn2cc(C(F)(F)F)ccc2=O)cc1	-6%	-5	1	0.0	-16
Brc1ccc(-c2nc(-c3ccncc3)no2)cc1	nt	3	nt	1.1	nt
COc1ccccc1C(=O)COC(=O)Cn1c(C)csc1=O	nt	-1	nt	-2.5	nt
O=C(CSc1nnc2c(n1)[nH]c1ccc(S(=O)(=O)N3CCOCC3)cc12)Nc1ccccc1Cl	1%	16	-7	1.2	nt
Cc1nc2nc(NC(=O)c3ccco3)[nH]n2c(=O)c1C	nt	-2	nt	0.0	nt
Cc1nnc2c(NCCC(C)C)nc3ccccc3n12	nt	-1	nt	-2.5	nt
O=c1c(-c2ccccc2)nc(-c2ccccc2)cn1O	-6%	-2	-9	-3.5	16
O=C(CCN1CCN(c2ccc(Cl)cc2)CC1)Nc1ccccc1F	8%	79	17	4.2	-19
CS(=O)(=O)N1CCC(C(=O)Nc2ccc(Cl)c(C(F)(F)F)c2)CC1	-6%	9	9	0.6	8
COc1ccc(C(=O)N(Cc2ccccc2)c2ccc(C)cc2)cc1S(=O)(=O)N1CCOCC1	nt	-2	nt	-1.3	nt
COc1ccc2[nH]c(-c3cccc(F)c3)cc(=O)c2c1	-8%	-1	-11	-0.1	-21
COC(=O)c1ccc(/C=C2/C(=O)Oc3ccccc32)cc1	nt	3	nt	3.4	nt
CCn1cc(C(=O)OCC(=O)OC2CC(C)CCC2C(C)C)c(=O)c2ccc(C)nc21 (stereo unspecified)	-10%	12	4	14	-23
COc1ccc(C(=O)c2cc([N+](=O)[O-])ccc2N2CCN(C)CC2)cc1	-1%	-2	-8	-0.1	nt
Cc1c(-c2cc(C(=O)O)no2)cnn1C	1%	0	-3	-3.2	nt
CC(=O)c1ccc(N2CCN(C(=O)c3cc(C)on3)CC2)cc1	3%	-5	-4	-4.3	-8
Cc1ccc(S(=O)(=O)N(C)C)cc1NC(=S)NCCCn1ccnc1	1%	-1	3	-2.5	nt
Cc1ccc(-c2nc(=O)[nH]c3ccc(Br)cc23)cc1	nt	-4	nt	-2.2	nt
Cc1ccc(NS(=O)(=O)c2cccc(C(=O)O)c2)c(C)c1	-7%	2	14	0.3	-44
CCC(=O)Nc1nc2ccc3nc(C)sc3c2s1	7%	-3	-4	2.4	-3	Arbovirus anti repeat=-3
Nc1ccc2nc(SCC(=O)c3ccccc3)sc2c1	nt	-1	nt	-1.4	nt
CC(C)C1S/C(=N/N=C/c2ccco2)NC1=O (stereo unspecified)	-4%	12	2	nt	-21
CCC1Sc2ccc(S(=O)(=O)CCC(=O)Nc3c(Cl)cc(OC)cc3OC)cc2NC1=O (stereo unspecified)	nt	4	nt	1.7	nt
O=C(c1ccc(=O)oc1)N1CCC(C(O)(c2ccccc2)c2ccccc2)CC1	-5%	-2	nt	-1.0	nt
c1ccc(C(c2nnnn2Cc2cccs2)N2CCN(C3CCCC3)CC2)cc1 (stereo unspecified)	7%	-3	21	0.9	-35
O=C(Cc1ccccc1)N/N=C/c1ccc(OC(=O)/C=C\c2ccco2)cc1	6%	-3	-2	-0.9	7
CCOC(=O)C1CCCN(C(=O)c2ccccc2NC(=O)C2=C(C)OCCS2)C1 (stereo unspecified)	nt	-1	nt	-2.0	nt
O=C(CN1CCCCC1)N1c2ccccc2Oc2ccccc21	0%	-11	5	3.6	7
CC1CCN(C(=O)C2CCN(S(=O)(=O)c3cc(Cl)ccc3Cl)CC2)CC1	nt	-4	nt	-3.2	nt
COC(CNc1nc(SC)nc2sc3c(c12)CCN(C)C3)OC	nt	-4	nt	-3.7	nt
Cc1ccc(C(=O)N/N=C\c2ccc[nH]2)cn1	-9%	2	-6	0.1	-13
COc1nc(N(C)C)nc(N2CC(=O)N(CCNS(=O)(=O)c3ccc(C)cc3)C2=N)n1	-3%	-2	6	-6.7	-11
CNCCCNCc1ccc(SC)cc1	9%	nt	-1	nt	-10
COc1ccc(OCC(=O)Nc2nc3ccc(NC(C)=O)cc3s2)cc1	-3%	-6	-1	-0.8	nt
CCc1c(C)sc(NC(=O)C2CCCCC2C(=O)O)c1C(N)=O (stereo unspecified)	-15%	82	0	-0.3	-2	Arbovirus anti repeat=2
COc1ccc2sc(N(CCN(C)C)C(=O)/C=C/c3cccs3)nc2c1	14%	-6	0	1.1	nt
c1ccc2c(c1)OCC(c1nn3cnnc3s1)O2 (stereo unspecified)	-14%	?	-2	-2.4	-42
O=S(=O)(NCCNS(=O)(=O)c1ccc(F)cc1)c1ccc(F)cc1	-3%	-5	1	-2.0	-12
Cc1ccc(C(O)(c2ccc(C)c(C)c2)C2CN3CCC2CC3)cc1C (stereo unspecified)	nt	1	nt	2.0	nt
Cn1c(O)c(C=NCCN2CCN(C(=O)Nc3ccccc3)CC2)c(=O)n(C)c1=O	-4%	-10	nt	nt	nt
COC(=O)CC(NC(=O)C1CC1)c1ccc2c(c1)OCO2 (stereo unspecified)	-5%	-6	3	nt	nt
O=C(Nc1ccc(S(=O)(=O)N2CCOCC2)cc1)c1ccc(Cl)s1	3%	12	3	1.2	-30
COc1ccc(NC(=O)/C(C#N)=C/c2ccc(OCCN3CCOCC3)c(OC)c2)c(OC)c1	nt	?	nt	2.8	nt
O=C(O)CCn1ncc2ccccc2c1=O	-7%	-7	1	2.8	nt
O=C(COC(=O)c1cccnc1Nc1ccccc1F)NCCN1C(=O)CSC1=O	4%	1	-14	-1.8	-10
CCS(=O)(=O)Nc1ccc(C(=O)c2ccccc2)cc1	4%	-4	-2	nt	-8

The results go on.
SMILES	Mtb growth	Mtb bLac sens	Arbovirus anti	RecA splice inh	YopH PTP inh	others
CCN(CCCNC(=O)CNC(=O)Cn1cnc2ccccc2c1=O)c1ccccc1	18%	-3	4	nt	-20
COc1ccccc1Nc1nc(-c2cccs2)cs1	-2%	4	0	10	-39
Cc1ccc(C(=O)C(OC(=O)c2cnccn2)c2ccccc2)cc1 (stereo unspecified)	-4%	-1	-9	-1.4	nt
COCCn1c(SCC(=O)c2cccc(OC)c2)nnc1-c1ccco1	-3%	-9	3	5.9	-22
O=C1NC(=O)C2(CCCCCCCCCCC2)N1	nt	-8	nt	0.2	nt
C=CCNC(=O)C1CC(=O)N(c2ccc(OCC(=O)Nc3cccc(OC)c3)cc2)C1 (stereo unspecified)	-5%	-3	6	0.7	13
COc1ccc(C)cc1NC(=O)C(Sc1nnc(-c2ccncc2)n1-c1ccc(Cl)cc1)c1ccccc1 (stereo unspecified)	56%	25	-18	12	9
CCOC(=O)c1sc(=S)n(-c2cc(OC)ccc2OC)c1N	6%	83	-12	-1.6	-24
CCc1ccc(NCCC(=O)c2ccc(Cl)cc2)cc1	?	-2	3	-1.3	-33
O=C(CCCc1ccccc1)Nc1ccnn1C1CCN(Cc2ccc(CO)o2)CC1	nt	-1	nt	2.5	nt
O=C(Cc1cccs1)NCCCc1ccccc1	-6%	-15	2	-0.5	nt
CCOC(=O)c1ccc(N2C(=O)CC(N3CCC(C(N)=O)(N4CCCCC4)CC3)C2=O)cc1 (stereo unspecified)	-11%	2	-2	nt	-27
Cc1cc(C)cc(Nc2ncc3c(n2)CC(c2ccco2)CC3=O)c1 (stereo unspecified)	-5%	-2	-1	5.2	-26
COc1cccc(CC2(CO)CCCN(CC3=Cc4cc(OC)ccc4OC3)C2)c1 (stereo unspecified)	10%	-3	8	3.0	nt
Cc1nnc(SCC(=O)Nc2ccccc2NC(=O)CSc2nnc(C)s2)s1	-5%	-4	1	-6.8	-1
Cc1cc[n+](CC(=O)Nc2cccc(C)c2)cc1	nt	-8	nt	1.1	nt
CC(=O)NCC(=O)NC1CC(C)(C)Cc2c1cnn2-c1ccccc1 (stereo unspecified)	nt	-1	nt	-1.6	nt
COc1ccc(-c2cc(=O)oc3cc(OCC(=O)NCCCn4ccnc4)ccc23)cc1	nt	-9	nt	5.8	nt
C=CCn1c(=O)[nH]c2cc(C(=O)N3CC=C(c4ccccc4)CC3)ccc2c1=O	7%	5	4	2.7	nt
CC(C)(C)C(=O)OCC12CCC(O1)C1(C)C(=O)OCC21 (stereo unspecified)	0%	-3	-11	-0.6	-7
CN(C)CCOc1cccc(Br)c1	3%	-6	0	-1.2	nt
Cc1cccc(NC(=O)CCN2CCCC(C)C2)c1 (stereo unspecified)	nt	-18	nt	0.2	nt
COc1ccc(Cl)cc1NS(=O)(=O)c1cccc2cccnc12	nt	-7	nt	-1.4	nt
Cc1ccc(C2(CCNC(C)c3cccs3)CCOC(C(C)C)C2)cc1 (stereo unspecified)	16%	nt	-33	5.9	nt
Cc1cc(C=O)c2c(c1)C=CC1(Oc3ccccc3C(=O)N1C)O2 (stereo unspecified)	nt	88	2	5.6	-17
COc1cc(C(O)P(=O)(OCC(C)C)c2ccc(N(C)C)cc2)cc(OC)c1OC (stereo unspecified)	-2%	9	nt	-0.7	nt
CC(C)COc1ccc(C(=O)N/C(=C/c2cccc([N+](=O)[O-])c2)C(=O)O)cc1	-3%	-6	nt	-1.6	nt
Cc1ccc(S(=O)(=O)N(C)c2nonc2C)cc1	-1%	-13	-6	-1.4	-10
Cc1nc(NC(=O)CCl)sc1C(=O)N(C)C	-4%	4	6	nt	nt

Of the compounds above, these contain two or more sulfur atoms:
SMILES	Mtb growth	Mtb bLac sens	Arbovirus anti	RecA splice inh	YopH PTP inh	others
O=C(CCNS(=O)(=O)c1cccs1)NCc1ccco1	-10%	-7	4	1.7	-32
COc1ccc(-c2nn(-c3ccccc3)cc2/C=C2/SC(=S)N(CCC(=O)O)C2=O)cc1	nt	6	nt	-1.5	nt
O=C(CSc1nnc2c(n1)[nH]c1ccc(S(=O)(=O)N3CCOCC3)cc12)Nc1ccccc1Cl	1%	16	-7	1.2	nt
Cc1ccc(S(=O)(=O)N(C)C)cc1NC(=S)NCCCn1ccnc1	1%	-1	3	-2.5	nt
CCC(=O)Nc1nc2ccc3nc(C)sc3c2s1	7%	-3	-4	2.4	-3	Arbovirus anti repeat=-3
Nc1ccc2nc(SCC(=O)c3ccccc3)sc2c1	nt	-1	nt	-1.4	nt
CCC1Sc2ccc(S(=O)(=O)CCC(=O)Nc3c(Cl)cc(OC)cc3OC)cc2NC1=O (stereo unspecified)	nt	4	nt	1.7	nt
COC(CNc1nc(SC)nc2sc3c(c12)CCN(C)C3)OC	nt	-4	nt	-3.7	nt
COc1ccc2sc(N(CCN(C)C)C(=O)/C=C/c3cccs3)nc2c1	14%	-6	0	1.1	nt
O=S(=O)(NCCNS(=O)(=O)c1ccc(F)cc1)c1ccc(F)cc1	-3%	-5	1	-2.0	-12
O=C(Nc1ccc(S(=O)(=O)N2CCOCC2)cc1)c1ccc(Cl)s1	3%	12	3	1.2	-30
COc1ccccc1Nc1nc(-c2cccs2)cs1	-2%	4	0	10	-39
CCOC(=O)c1sc(=S)n(-c2cc(OC)ccc2OC)c1N	6%	83	-12	-1.6	-24
Cc1nnc(SCC(=O)Nc2ccccc2NC(=O)CSc2nnc(C)s2)s1	-5%	-4	1	-6.8	-1
